# Compound activity (PubChem BioAssay)
# AID504770 = E. coli YBA685 growth inhibition, screen for V. cholerae RctB inhibitors | z-score (no concentration beside the values) | hit rate 0.27% among 130,000 | E. coli YBA685 rctB-dependent plasmid, OD600 growth, 3 h; stronger effect = lower value;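 active = z-score under -2 on both plates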;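 note: wells of about 30 µL received 100 nL stock; score is relative to mean and SD of the test wells; the first replicate is given; strong numbers were not always called active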
# Ba CapD inh = blocks the Bacillus anthracis CapD enzyme. purified CapD enzyme, fluorescence intensity read-out; stronger effect = lower value; some hits fall short of the stated cut. z-score (concentration not given with the values). hit rate 0.23% among 140,000. AID 492967;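 active = z-score under -4 in either of two replicates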;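 note: stock transfer was 100 nL into about 40 µL; score is relative to mean and spread of the plate; one replicate is shown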
# Active calls of the source: *; nt = not tested or not shown; & = joins results of further samples.
SMILES	AID504770	Ba CapD inh
CCC(C)c1c(O)nc(SCC(=O)NCc2ccco2)[nH]c1=O (stereo unspecified)	-0.9	-0.58
CCCCn1c2ccccc2c2nc3cc(OC)c(OC)cc3nc21	nt	26
Cc1nc2ccn(Cc3ccccc3)c(=O)c2cc1C(=O)O	-0.4	54
CC(=O)NC(Cc1c[nH]c2ccccc12)C(=O)OCc1cc(=O)n2c3c(sc2n1)CCCC3 (stereo unspecified)	0.75	nt
CC1=CC(C)C(C(=O)O)C(C(=O)Nc2ccccc2)C1 (stereo unspecified)	-0.2	-0.29
COc1ccc(Nc2ncnc3c2cnn3-c2ccc(C)cc2C)c(OC)c1	nt	-0.25
Cc1nc(C)c(C(=O)NCc2ccccc2Cl)o1	1.1	nt
Brc1ccc(NC2=Nc3ccccc3CC2)cc1	1.6	-0.35
O=C(COC(=O)C1CC1)c1ccc(Cl)s1	-0.45	nt
O=C(c1cccc(N2C(=O)C3CC=CCC3C2=O)c1)N1CCN(c2ccccc2)CC1 (stereo unspecified)	nt	-0.87
CSc1c(C#N)c(-c2cccs2)nn1CC(=O)N/N=C/c1cccs1	-0.15	-0.21
Cc1ccc(C)c(Nc2n[nH]c(=S)s2)c1	-0.15	-1.1

# Copied from the list.
# Reading for COc1ccc(Nc2ncnc3c2cnn3-c2ccc(C)cc2C)c(OC)c1 under Ba CapD inh: -0.25
# Reading for CC(=O)NC(Cc1c[nH]c2ccccc12)C(=O)OCc1cc(=O)n2c3c(sc2n1)CCCC3 (stereo unspecified) under AID504770: 0.75
# Reading for CCC(C)c1c(O)nc(SCC(=O)NCc2ccco2)[nH]c1=O (stereo unspecified) under Ba CapD inh: -0.58
# Reading for CCCCn1c2ccccc2c2nc3cc(OC)c(OC)cc3nc21 under Ba CapD inh: 26
# Reading for CC1=CC(C)C(C(=O)O)C(C(=O)Nc2ccccc2)C1 (stereo unspecified) under Ba CapD inh: -0.29
# Reading for O=C(COC(=O)C1CC1)c1ccc(Cl)s1 under AID504770: -0.45

# New compounds follow:
SMILES	AID504770	Ba CapD inh
Nc1cc(=O)[nH]c(=O)n1CC12CC3CC(CC(C3)C1)C2	-0.3	0.32
Cn1nc(-c2ccc(S(=O)(=O)NCc3ccco3)s2)cc1C(F)(F)F	0.05	0.38
O=C(O)CNC(=O)c1cn(-c2ccccc2)nc1-c1ccc(Cl)s1	-0.45	3.1
CC1(c2ccc(Cl)cc2)NC(=O)CS1 (stereo unspecified)	-0.55	nt
COc1ccc(-c2nnc(SCc3nc(N)nc(Nc4ccccc4)n3)o2)cc1	nt	-0.1
CC(C)NC(=S)N1CCCN2C(=O)c3ccccc3C21 (stereo unspecified)	-0.9	1.2
Cc1cc(NCc2cccnc2)c2ccc(Cl)cc2n1	0.05	14
O=C(NCC(=O)N1CCN(c2ccccc2)CC1)c1ccsc1	nt	-0.28
CCOC(=O)c1c(NC(=O)c2ccccc2F)sc(C(=O)N2CCCCC2)c1C	0.75	5
CCOC(=O)C1=C(N)OC(c2cccc(OC)c2)=C(C#N)C1c1ccccc1 (stereo unspecified)	1.2	3.2
CC1CCc2cc(F)ccc2N1C(=O)c1ccc(N2CC3CC(C2)c2cccc(=O)n2C3)c(NC(=O)c2cccs2)c1 (stereo unspecified)	nt	-0.4
COC(=O)c1sccc1Br	-0.75	0.58
COC(=O)c1ccccc1NC(=O)CSc1nc2ccsc2c(=O)n1-c1ccc(F)cc1	-0.6	0.93
Cc1nc2cc(Cl)ccc2c(=O)n1-c1ncn[nH]1	-0.55	0.42
Cc1cc(C)cc(NS(=O)(=O)c2coc(C(N)=O)c2)c1	-0.25	0.67
Nc1nc(SCC(=O)N(C2CCCCC2)C2CCS(=O)(=O)C2)nc2sc3c(c12)CCCC3 (stereo unspecified)	1.1	nt
O=c1[nH]c(=S)[nH]c(O)c1CN1CCOCC1	-0.1	-0.45
CCOc1cc(/C=C2\SC(NC(C)=O)=NC2=O)ccc1OCc1ccccc1	nt	-0.055
N#Cc1ccccc1NC(=O)CCS(=O)(=O)c1ccccc1	-0.35	nt
COC(=O)c1c(C)oc2cc(Br)c(OC(=O)c3ccc([N+](=O)[O-])cc3)cc12	nt	0.13
NC(=O)c1nnc2cc(-c3ccccc3)nn2c1-c1ccccc1Cl	nt	0.27
O=C(OCC(=O)N1CCC(c2ccccc2)=N1)c1ccc(Br)o1	-0.05	nt
Cc1ccc(S(=O)(=O)N(C)c2nc3ccccc3nc2SCC#N)cc1	-0.2	nt
O=C(CCC(=O)c1cccs1)c1cccs1	0.25	-1
CCOC(=O)c1nc(Nc2cccc(NC(C)=O)c2)c2ccccc2n1	nt	-0.72
Clc1ccc(SCc2nc3ncccn3c2Br)cc1	2	6
Cn1c(C(=O)NCc2ccccc2)cc(=O)n(C)c1=O	-0.75	nt
O=C(NO)c1ccc(C(F)(F)F)cc1	-1.9	0.29
CCN(CC)C(=O)c1ccccc1Sc1ccccc1C#N	-0.55	-1
Cc1cccc(C)c1NC1=NC(=S)N(c2cccc(O)c2)C12CCC(C(C)(C)C)CC2 (stereo unspecified)	nt	-0.44
COc1cccc(CNC(=O)CCS(=O)(=O)Cc2ccc(C)cc2)c1	-0.3	0.32
COc1ccccc1-n1cnc2cc(C(=O)N3CCOCC3)ccc21	0.75	-0.1
Cc1ccc(C=C2C(=O)N(C)C(=O)N(C)C2=O)cc1	-0.15	nt
O=C(O)CCNc1ccc(Br)cc1C(=O)O	0.4	40
CCC(=O)NC(CC)Cc1ccccc1 (stereo unspecified)	0.15	0.085
CCOc1ccc(C2c3c(oc4ccc(F)cc4c3=O)C(=O)N2CCOC)cc1 (stereo unspecified)	1.4	-0.15
COc1ccc(N2CCN(C(=O)c3ccccc3NC(=O)c3ccccc3)CC2)cc1	0	0.19
c1ccc(C2CC(c3cccs3)=Nc3nc4ccccc4n32)cc1 (stereo unspecified)	0.05	nt
Cc1ccc(S(=O)(=O)NC(=O)Oc2ccc(-c3csnn3)cc2)cc1	-0.25	-0.2
NS(=O)(=O)c1ccc(CCn2c(SCC(=O)Nc3cccc(C(F)(F)F)c3)nc3ccccc3c2=O)cc1	nt	-0.22
CN1CCC(=C2c3ccccc3Sc3ccccc32)CC1	-0.25	-0.12&-0.37
Cc1ccc(S(=O)(=O)Oc2cc(S(=O)(=O)c3ccccc3)ccc2[N+](=O)[O-])cc1	nt	0.45
CCOC(=O)c1c(-c2cc(OC)ccc2OC)c2oc3ccccc3c2[nH]c1=O	-0.1	-0.24
COc1ccc(Nc2nc(Cl)nc(NCCN3CCOCC3)n2)cc1	nt	-0.72
O=C(Cc1ccccc1)NCc1ccccn1	0	nt
COc1ccc(Cl)cc1NC(=O)COC(=O)c1cc(F)c(F)cc1Cl	0.2	-0.83
O=C(COCc1cc(-c2ccc3c(c2)OCO3)on1)Nc1ccc(OC(F)(F)F)cc1	-2.5*	0.2
Cc1ccc(C2C3=C(CC(c4ccco4)CC3=O)Nc3ncnn32)cc1 (stereo unspecified)	0.05	nt
CCCCOc1ccc(OCCCC)c2c1NC1(N2)C(=O)N(C(C)=O)c2ccccc21	nt	-0.51
COc1cccc(O)c1C(=O)NCC(=O)O	1.2	0
COc1ccc(CCNCc2ccccc2)cc1	-0.25	0.56
COC(=O)c1cccc(NC(=O)/C(=C\c2ccc3c(c2)OCO3)NC(=O)c2ccc(Br)cc2)c1	nt	-0.11
COC(=O)c1cc(-c2ccc(Br)cc2)on1	0.1	0.17
O=C(Nc1sccc1-n1cccc1)NC1Cc2ccccc2C1	-0.2	0.37
CSc1ncc(C(=O)N2CCOCC2)cn1	-0.25	-0.34
Cn1c(=N)n(CCCOc2ccc(Br)cc2)c2ccccc21	-0.45	0.52
CN(C)CCNC(=O)C1CCCNC1=O (stereo unspecified)	0.2	-0.16
c1ccc(CNc2nc(-c3ccccc3)ns2)cc1	1.7	0.47
Cc1nc(N)c(C(=O)O)nc1C	0	-0.29
O=C1CC(C(=O)O)N=C(Nc2nc3ccccc3s2)N1 (stereo unspecified)	-0.25	-0.33

# Continuation:
SMILES	AID504770	Ba CapD inh
CCn1c(=NC(=O)CN2C(=O)c3ccccc3C2=O)sc2cccc(F)c21	-0.55	nt
Cc1ccc2oc(=O)c3cc(C(=O)N(C)Cc4ccco4)sc3c2c1	0.4	2.2
COC(C)(C)/C=C(\N)C(=O)c1ccccc1	0.1	-3.9
COC(=O)c1cnc(SCc2nc(OC)cc(OC)n2)n1C	nt	-0.23
CC(c1ccccc1)n1c(N)c(C#N)c2nc3ccccc3nc21 (stereo unspecified)	-0.05	100
Cc1ccc2c(COC(=O)c3c(C)noc3C)cc(=O)oc2c1	-0.2	nt
c1ccc2c(c1)COC1(CCCCC1)N2	1.1	nt
CCOc1ccc(S(=O)(=O)N2CCN(C(=O)[C@H](C)NC(N)=O)CC2)cc1	-0.6	nt
CC(=O)Nc1nc2c(s1)C(=O)CC(C)(C)C2	0.7	-0.72
Cc1ccc(-n2ncc3c(=O)[nH]c(SCC(=O)N4CCCc5ccccc54)nc32)cc1	1.2	0.44
COCCN=c1scc(-c2ccccc2F)n1/N=C/c1ccco1	-0.2	nt
N#CC1(NC(=O)Cn2nnc3ccccc3c2=O)CCCC1	0.85	nt
O=c1c(-c2ccn(-c3ccccc3)n2)c(O)c2ccccc2n1-c1ccccc1	1.3	-0.93
Cc1nc(NCCN2CCOCC2)c2sc3nc4c(cc3c2n1)COC(C)(C)C4	-0.45	1.3
Cc1cccc2oc3cc(NC4CCCCC4)c4c(=O)c5ccccc5c(=O)c4c3[nH]c12	nt	-0.47
COC(=O)Cn1ncc2c3ccccc3n(Cc3cccc(Cl)c3)c2c1=O	0.75	0.075
O=C(Nc1cccn(Cc2ccc(Cl)c(Cl)c2)c1=O)OCC(F)(F)F	nt	20
O=C(Nc1ccc2[nH]c(=O)oc2c1)c1ccccc1	0.35	-0.56
c1ccc(-n2ncc3c(N4CCCCC4)ncnc32)cc1	-0.9	-0.18
CC(=O)Nc1ccc(NC(C)=O)cc1	nt	0.36
CCOC(=O)C1=C[C@]2(CC)CCCN3CCc4c(n1c1ccccc41)[C@@H]32	0.25	0.22
CC(=O)NC(=O)c1cc2ccccc2oc1=Nc1ccc(Cl)cc1	-0.05	-0.41
Nc1c(C(=O)N2CCOCC2)sc2nc3c(cc12)CCCC3	0.8	nt
Cc1c(S(=O)(=O)c2ccc(Cl)cc2)csc1C(=O)NN	nt	-0.01
O=C(Cn1ncc2c(=O)oc3ccccc3c21)Nc1nc2ccccc2s1	-0.7	0.42
CCOC(=O)C1=C(O)/C(=C/c2ccc(C)cc2)SC1=Nc1ccc(C)cc1	nt	-1.2
O=C1NC2(CCN(C(=O)NCC3CCCO3)CC2)Oc2ccccc21 (stereo unspecified)	-0.65	0.54
CCOc1ccc(N2C(=O)/C(=C/c3cccs3)C(=O)N(c3ccccc3)C2=S)cc1	-0.55	0.67
O=c1cc(CSc2nnc(-c3ccco3)n2Cc2ccccc2)nc2sccn12	-0.25	nt
O=C(O)c1cccnc1Sc1ccc2c(c1)OCCO2	-0.85	nt
COc1ccc(-n2c(-c3ccccc3)cn3c4c(=O)n(C)c(=O)n(C)c4nc23)cc1	nt	-0.73
N#Cc1c(N)nc2c(c1N)CC(=O)N2C1CCS(=O)(=O)C1 (stereo unspecified)	-0.6	nt
CCOCCn1ccc2c(OCC(=O)Nc3ccc4c(c3)OCCO4)cccc2c1=O	0	nt
COC(=O)c1ccc(NC(=O)Cn2cncn2)cc1	-0.4	nt
COc1ccc(C(OCC2OC(n3cc(C)c(=O)[nH]c3=O)CC2OS(C)(=O)=O)(c2ccccc2)c2ccc(OC)cc2)cc1 (stereo unspecified)	nt	15
O=c1[nH]c(CSCc2ccco2)nc2ccccc12	-0.15	nt
Cc1ccc(C(C)C)c(OC(=O)NC2(C(F)(F)F)Oc3ccc(Cl)cc3O2)c1 (stereo unspecified)	0.3	0.38
CCC(Sc1ncccn1)C(=O)Nc1cc(C)on1 (stereo unspecified)	-0.65	-3.6
CC(Sc1ccc(F)cc1)C(=O)NC(N)=O (stereo unspecified)	-0.55	nt
CCCC1CC(C)(/C(C)=N\NC(N)=S)OC1=O (stereo unspecified)	-0.8	nt
Cn1c2ccccc2c2nc3ccccc3nc21	nt	0.59
Cn1c(=NC(=O)COCC(=O)N=c2sc3cccc(F)c3n2C)sc2cccc(F)c21	0.35	nt
Cc1cc(C)c(S(=O)(=O)Cc2ccccc2)c(=O)[nH]1	-0.3	1.6
COc1ccc(Nc2ncnc3c2cnn3-c2ccc(Cl)cc2)cc1OC	nt	-0.15
Cc1ccc(-c2nnc(SCC(=O)NC3CCCCC3)o2)cc1	1.5	-0.74
CCC(=O)Nc1ccc[n+](-c2nc3ccccc3nc2C(=C=[N-])C#N)c1	-0.9	nt
O=C(CC1(O)C(=O)Nc2ccccc21)c1cccc(-n2cnnn2)c1 (stereo unspecified)	2.6	-0.59
Cn1c2ccccc2c2c(C(=O)N3CCCCC3)cn(C3CCCC3)c(=O)c21	-0.35	-0.77

# Structures shown so far that have a nitro group on carbon, in the order listed:
SMILES	AID504770	Ba CapD inh
COC(=O)c1c(C)oc2cc(Br)c(OC(=O)c3ccc([N+](=O)[O-])cc3)cc12	nt	0.13
Cc1ccc(S(=O)(=O)Oc2cc(S(=O)(=O)c3ccccc3)ccc2[N+](=O)[O-])cc1	nt	0.45

# Further structures.
SMILES	AID504770	Ba CapD inh
CC1CN(C(=O)C(C)N2CCN(c3ncc(C(F)(F)F)cc3Cl)CC2)CC(C)O1 (stereo unspecified)	-0.1	nt
Cc1cccc(C)c1NC(=O)C(c1ccccc1)N(Cc1ccco1)C(=O)Cn1nnc2ccccc21 (stereo unspecified)	0.45	nt
COc1ccc2c(c1)C(=O)N(C)C(=O)C2	-0.4	19
CCN1CCC2(CC1)N=C(c1ccccc1)C(=S)N2	-1	-1.8

# Whole records, looked up by structure. Values in the order: AID504770 | Ba CapD inh
# CCN1CCC2(CC1)N=C(c1ccccc1)C(=S)N2 as listed: -1 | -1.8
# COc1ccc2c(c1)C(=O)N(C)C(=O)C2 as listed: -0.4 | 19
